HNF4A DNA FP – change in binding of human HNF4 alpha to DNA | activity change, % at 10 µM | HNF4a-FITC DNA binding, fluorescence polarization, 1 h | 360,000 compounds, 0.3% hits | P41235; in the data active means activity change above about 30%, passing the limit was not always enough;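 further: controls were the assay level and a saturating level of protein; the project sought stronger binding though the title names inhibitors; some compounds called inactive have numbers as strong as hits; positive values seem to mean higher polarization but the record does not say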
Target sequence (P41235 whole entry, looked up): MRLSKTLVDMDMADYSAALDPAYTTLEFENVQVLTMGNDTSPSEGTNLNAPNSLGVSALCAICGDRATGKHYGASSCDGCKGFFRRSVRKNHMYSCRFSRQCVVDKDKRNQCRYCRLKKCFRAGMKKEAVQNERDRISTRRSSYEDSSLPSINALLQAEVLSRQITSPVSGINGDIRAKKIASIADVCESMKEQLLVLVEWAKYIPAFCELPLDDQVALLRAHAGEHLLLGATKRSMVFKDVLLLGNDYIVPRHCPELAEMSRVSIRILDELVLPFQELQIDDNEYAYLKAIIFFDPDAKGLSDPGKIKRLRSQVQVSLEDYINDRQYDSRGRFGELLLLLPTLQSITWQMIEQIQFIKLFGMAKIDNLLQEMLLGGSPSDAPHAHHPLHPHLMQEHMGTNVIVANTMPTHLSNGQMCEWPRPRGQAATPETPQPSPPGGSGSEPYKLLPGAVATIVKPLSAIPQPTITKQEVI
B2AR ag – activates human beta-2 adrenergic receptor causing internalization; 340,000 compounds, 0.43% hits; AID 504454; response, % (no concentration beside the values); Am2.2-beta2AR cells, FAP receptor internalization, flow cytometry; reference of the scale not given here;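 active means response above a set limit, near 3 SD of response in nonfluorescent compounds, cut at about 42% in these data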;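 further: stock transfer was 100 nL into about 11 µL; a reference agonist was the positive control; negative values mostly stem from fluorescent compounds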
Target sequence (P07550 whole entry, looked up): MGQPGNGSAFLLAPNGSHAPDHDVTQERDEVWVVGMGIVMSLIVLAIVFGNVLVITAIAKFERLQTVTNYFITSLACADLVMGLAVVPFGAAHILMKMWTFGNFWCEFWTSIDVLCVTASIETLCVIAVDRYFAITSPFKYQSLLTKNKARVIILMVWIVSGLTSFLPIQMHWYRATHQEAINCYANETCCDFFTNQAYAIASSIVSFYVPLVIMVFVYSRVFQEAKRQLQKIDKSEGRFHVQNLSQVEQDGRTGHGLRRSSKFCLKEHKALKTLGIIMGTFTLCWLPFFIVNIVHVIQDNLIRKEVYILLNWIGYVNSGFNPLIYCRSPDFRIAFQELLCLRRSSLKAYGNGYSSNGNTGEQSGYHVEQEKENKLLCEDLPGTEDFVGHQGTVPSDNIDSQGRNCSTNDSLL
The depositor's hits bear a star; i = inactive; & = joins results of further samples.

SMILES	HNF4A DNA FP	B2AR ag
COc1cc(C2CC(=O)Oc3cc(C)cc(C)c32)cc(OC)c1OC (stereo unspecified)	-7.6	3.0
CCN(CC(=O)Nc1ccc(NC(C)=O)cc1)C(=O)c1ccc(COc2ccc(C(C)(C)C)cc2)cc1	0.5	1.9
O=c1ccn([C@@H]2O[C@H](CNCc3ccc(-c4cc(C(F)(F)F)ccc4Cl)o3)[C@@H](O)[C@H]2O)c(=O)[nH]1	6.0	-7.2
CCOC(=O)C1=CN(Cc2ccco2)S(=O)(=O)NC1CC (stereo unspecified)	1.8	-1.2
CC1CCCC(C)N1C(=O)COC(=O)c1cccc(S(=O)(=O)N(C)c2ccccc2)c1 (stereo unspecified)	-0.1	-10.3
CCOC(=O)N1CCC(NC(=O)CCc2c(C)nc3c(c(C)nn3-c3ccccc3)c2C)CC1	-0.3	10.9
O=C(O)c1ccccc1C(=O)c1ccc(F)c(F)c1	4.2	3.8
O=C(Nc1ccc(C(=O)N2CCOCC2)cc1)c1ccccc1	-0.9	-5.2
C[C@@H]1[C@H](c2ccccc2)Oc2ccc(Cl)cc2S(=O)(=O)N1CC1CCCN1C(=O)OC(C)(C)C (stereo partly specified)	-1.2	2.1
O=C(O)c1ccccc1NS(=O)(=O)c1ccc(N/N=C/c2ccc(O)c(O)c2)c([N+](=O)[O-])c1	-27.7	0.8
COc1ccc(NS(=O)(=O)c2cc(NC(=O)Cc3n[nH]c(=O)c4ccccc34)ccc2OC)cc1	5.5	7.1
Cc1cccc(NC(=O)c2cccc(NC(=O)c3ccco3)c2)c1	2.2	5.3
CC1(c2ccccc2)NC(=O)N(CC(=O)Nc2ccc(S(=O)(=O)NC3=NCCCCC3)cc2)C1=O (stereo unspecified)	-4.0	25.1
CN(c1ccccc1)S(=O)(=O)c1ccc(Cl)c(C(=O)OCC(=O)c2c(N)n(C)c(=O)n(C)c2=O)c1	-2.8	17.7
CCOc1ccc(S(=O)(=O)N2CCCCC2)cc1NC(=O)c1ccccc1	5.0	-6.9

Already shown: entries from further up.
SMILES	HNF4A DNA FP	B2AR ag
O=C(O)c1ccccc1NS(=O)(=O)c1ccc(N/N=C/c2ccc(O)c(O)c2)c([N+](=O)[O-])c1	-27.7	0.8
COc1ccc(NS(=O)(=O)c2cc(NC(=O)Cc3n[nH]c(=O)c4ccccc34)ccc2OC)cc1	5.5	7.1
Cc1cccc(NC(=O)c2cccc(NC(=O)c3ccco3)c2)c1	2.2	5.3
CC1(c2ccccc2)NC(=O)N(CC(=O)Nc2ccc(S(=O)(=O)NC3=NCCCCC3)cc2)C1=O (stereo unspecified)	-4.0	25.1
CN(c1ccccc1)S(=O)(=O)c1ccc(Cl)c(C(=O)OCC(=O)c2c(N)n(C)c(=O)n(C)c2=O)c1	-2.8	17.7
CCOc1ccc(S(=O)(=O)N2CCCCC2)cc1NC(=O)c1ccccc1	5.0	-6.9

(listing goes on)
SMILES	HNF4A DNA FP	B2AR ag
Cc1c(C)c([N+](=O)[O-])c(C)c(C)c1N	4.7	-11.5
CSCCC(NC(=O)c1cccc(S(=O)(=O)N2CCN(C(C)=O)CC2)c1)c1nc2ccccc2[nH]1 (stereo unspecified)	2.0	2.8
O=C(c1ccco1)N1CCN(C(=O)c2cccn3c(=O)c4c5c(sc4nc23)CCCC5)CC1	-1.4	6.0
CCN(CC(=O)Nc1ccccc1C(F)(F)F)C(=O)c1ccc(-n2nc(C)c(CCC(=O)OC)c2C)cc1	1.0	14.9
COc1cccc(/C=C/C(=C2\C(=O)N(c3ccccc3)N=C2C)c2ccc(Br)cc2)c1OC	-0.2	1.5
COC1OC2COC(c3ccccc3)OC2C(O)C1NC(C)=O (stereo unspecified)	-1.0	11.5
COc1ccc(S(=O)(=O)N2CCOCC2)cc1C(=O)NCC(c1ccccc1)c1ccccc1	-2.3	4.8
CN(CC(=O)Nc1ccccc1Br)C(=O)c1cccc(S(=O)(=O)N2CCc3ccccc32)c1	-0.4	-0.3
COc1ccc2[nH]c3c(c2c1)CCN1C(=O)C(CC(=O)NCCC2=CCCCC2)C[C@H](C(=O)N2CCOCC2)[C@@]31C (stereo partly specified)	-2.4	-9.0
Cc1ccc(NC(=O)COC(=O)CNC(=O)c2cccs2)cc1S(=O)(=O)N1CCOCC1	1.9	15.1
CC[C@@H](NC(=O)Cn1cc(C)c(=O)[nH]c1=O)c1ccccc1	1.5	1.9
CCCCN(C(=O)c1cccc(S(=O)(=O)N(CC)c2ccccc2)c1)c1c(N)n(CC(C)C)c(=O)[nH]c1=O	-1.7	-4.9
CCCCCCC(=O)O	-4.0	6.0
C#CCN(C[C@@H](CC(C)C)NC(=O)OC(C)(C)C)S(=O)(=O)c1ccc(Br)cc1F	2.7	3.9
CCC1(C)NC(=O)N(CC(=O)c2cc(C)n(C3CC3)c2C)C1=O (stereo unspecified)	-2.2	-0.2
COc1ccc(-c2cc([N+](=O)[O-])ccc2OCC(=O)N(C)CC(=O)Nc2ccc(C)cc2)cc1	-0.6	-4.5
COC(=O)[C@@]1(C)[C@H]2C(=O)N(Cc3ccccc3)C(=O)[C@H]2[C@H]2CN=C(SCc3ccccc3)N21	-0.6	-0.1
CNC(=O)C1CC(=O)N(c2ccc(OCC(=O)Nc3ccccc3)cc2)C1 (stereo unspecified)	-1.9	1.3
CCOc1cc(N2CCOCC2)c(OCC)cc1NC(=O)COC(=O)c1ccc(OC)c([N+](=O)[O-])c1	-0.9	0.3
O=C(COC(=O)c1cc(S(=O)(=O)Nc2ccccc2Cl)ccc1O)Nc1nc2ccccc2s1	0.6	-3.2
O=Cc1cc2c(cc1[B-](F)(F)F)OCO2	1.8	-0.6
COc1ccc2c(c1)c(=Cc1ccc(N(C)C)cc1)c1cc(-c3ccccc3)[n+](C)n12	219.0	i
O=c1[nH]c(-c2ccccc2)ncc1OCc1ccccc1	-0.2	-4.4
COCCCNC(=O)C[C@H]1C[C@H](C(=O)N2CCOCC2)[C@@]2(C)c3[nH]c4cc(-c5ccco5)ccc4c3CCN2C1=O	3.1	3.8
Cc1cccc(NC(=O)CN2CCN(C(=O)CN3C(=O)NC4(CC(C)CC(C)(C)C4)C3=O)CC2)c1C (stereo unspecified)	6.3	-4.2
Cn1c(=O)n(CCN2CCOCC2)c(=O)c2c1nc1n2CCN1c1ccc(Oc2ccccc2)cc1	1.9	-8.8
CCN(CC)S(=O)(=O)c1ccc(C(=O)Nc2cc(S(=O)(=O)N3CCOCC3)ccc2N2CCN(C)CC2)cc1	2.6	4.5
O=C(O)c1cc(N=Nc2c(O)ccc3ccccc23)cc(C(=O)O)c1	11.7	-0.8
O=C(CN1CCN(S(=O)(=O)c2cccc(F)c2)CC1)NCC1(N2CCOCC2)CCCCC1	5.3	-3.5
CCN1C[C@@H]2[C@@H]3C(=O)N(Cc4ccccc4)C(=O)[C@@H]3[C@](Cc3ccccc3)(C1=O)N2C(=O)c1ccc(Cl)c(Cl)c1	0.5	9.9
Cc1cc(O)c2c(c1)C(=O)[C@@]13Oc4c5c(c(O)c6c(O)cc(C)cc46)C(=O)C[C@H](O)[C@H]5[C@@H]1[C@@H](O)CC(=O)C3=C2O	-16.4	3.2
CCCc1cc(=O)[nH]c(SCC(=O)Nc2ccc(Cl)c(S(=O)(=O)N3CCOCC3)c2)n1	0.7	3.6
COc1ccc(CCn2c(-c3cccc([N+](=O)[O-])c3)nc3nc4ccccc4nc32)cc1	-2.8	-17.7
CC(=O)N/C(=C\c1ccccc1)C(=O)NCC(=O)O	0.6	2.6
CCCCn1c(N)c(N(CCOC)C(=O)COC(=O)CNC(=O)c2ccc(Cl)c(Cl)c2)c(=O)[nH]c1=O	-1.0	2.1
c1ccc2ncccc2c1	-1.6	-2.8
O=C(Nc1ccccc1)O[C@@H]1C[C@H]2CCCC(=O)N3CC[C@@H](C1)[C@@H]23	-3.8	-3.1
CC(C)CNC(=O)/C=C/C=C/c1ccc2c(c1)OCO2	-0.7	-4.3
CC(Oc1ccccc1Cl)C(=O)Nc1ccc(S(=O)(=O)N2CCOCC2)cc1 (stereo unspecified)	-1.7	-6.1
COc1cc(C2C(c3ccccc3)C(c3cc(OC)cc(=O)o3)C2c2ccccc2)oc(=O)c1 (stereo unspecified)	1.4	-14.0
Nc1c(N(CCC2=CCCCC2)C(=O)COc2ccc([N+](=O)[O-])cc2)c(=O)[nH]c(=O)n1Cc1ccccc1	0.8	-5.3
CN(c1ccc(OCC(=O)OCC(=O)Nc2ccc([N+](=O)[O-])cc2)cc1)S(=O)(=O)c1cccs1	3.2	6.7
O=C(Nc1nc(-c2ccccn2)cs1)c1cc(S(=O)(=O)N2CCOCC2)ccc1F	2.7	7.7
C#CCOCCOCCOCCNc1nc(N2CCN(C(=O)[C@H](C)n3cc(CCC(=O)O)nn3)CC2)nc(N2CCN(C(=O)[C@H](CCCCN)n3cc(CCCC)nn3)CC2)n1	-1.0	-2.7
CCC(C)Sc1cccc(-c2nc3cc(C)ccn3c2NC2CCCCC2)c1 (stereo unspecified)	11.3&14.6	35.0
CC(C)N1C(=O)CC(Nc2cccc3cccc(N)c23)C1=O (stereo unspecified)	-2.5	-5.9
C=CC(=O)Nc1cccc(N(C)c2ccnc(Nc3ccc(N4CCN(C)CC4)cc3)n2)c1	21.9	18.0
CCOc1ccc(NC(=O)CN(C)C(=O)C2CC(=O)N(c3cccc(SC)c3)C2)cc1OCC (stereo unspecified)	-2.4	-4.1
Cc1onc(-c2c(F)cccc2Cl)c1C(=O)Nc1cc(S(=O)(=O)N2CCCCC2)ccc1O	-2.7	25.5
Cc1cn(CC(=O)NCCc2c[nH]c3ccccc23)c(=O)[nH]c1=O	-1.5	-2.7
COc1ccc(CCNC(=O)Cc2ccc(NS(=O)(=O)c3ccc(F)cc3)cc2)cc1OC	3.5	1.2
Cc1c(/C(O)=C2/C(=O)C(=O)N(CCN3CCOCC3)C2c2ccco2)cnn1-c1ccccc1 (stereo unspecified)	4.5	-7.1
COc1cccc(OC)c1C(=O)N[C@@H]1C(=O)N2[C@@H]1SC(C)(C)[C@@H]2C(=O)O	-2.0	7.2
O=C(OCCC12CC3CC(CC(C3)C1)C2)c1ccc(NCc2cc(O)ccc2O)cc1	-5.3	23.4
S=C(NN=C(c1ccccc1)c1ccccn1)N(Cc1ccccn1)Cc1ccccn1	9.4	-0.5
COC1C(O)C(O)C(O)C(O)C1O (stereo unspecified)	0.2	-7.3
Nc1ccc2cc3ccccc3cc2c1	55.1	-239.4
CN(C(=O)c1cccc(NC(=O)Cc2cccc(NC(=O)C3CCN(C(=O)c4ccccc4)CC3)c2)c1)C1CCCC1	0.8	-18.1
CCC(C)N(C(=O)CSc1nc(-c2cccs2)nc2ccccc12)C1CCS(=O)(=O)C1 (stereo unspecified)	1.4	-8.0
CN1CCN(c2ccc(S(=O)(=O)N3CCOCC3)cc2NC(=O)C2CCCCC2)CC1	-1.9	-5.2
Next part:
SMILES	HNF4A DNA FP	B2AR ag
C#CCOCCOCCOCCNc1nc(N2CCOCC2)nc(N2CCN(C(=O)[C@H](CCCCN)n3cc(CCC(=O)O)nn3)CC2)n1	2.3	15.6
COc1ccc(C(CNC(=O)c2cccc(S(=O)(=O)Nc3ccc(F)cc3)c2)N2CCCCC2)cc1 (stereo unspecified)	2.4	-0.7
COc1cc(Cl)c(CNC[C@H]2O[C@@H](n3cnc(C(N)=O)n3)[C@H](O)[C@@H]2O)c(Cl)c1O	-1.1	0.7
COc1ccc(S(=O)(=O)NCc2cccnc2)cc1NC(=O)c1ccccc1C	-34.2	-5.4
O=C1NC[C@H](Cc2ccccc2)N(C[C@H]2CCCN2C[C@H](Cc2ccccc2)N2C[C@H](Cc3ccccc3)N(CC3CCCCCC3)C(=O)C2=O)C1=O	-1.5	22.5
CC(C)=CCC[C@](C)(O)C1CC[C@]2(C)C1[C@H](O)CC1[C@@]3(C)CC[C@H](O[C@@H]4O[C@H](CO)[C@@H](O)[C@H](O)[C@H]4O[C@@H]4O[C@H](CO)[C@@H](O)[C@H](O)[C@H]4O)C(C)(C)C3CC[C@]12C (stereo partly specified)	2.5	15.3
COc1cc(/C=C2\CCC(C)C3=C(c4cc(OC)c(OC)c(OC)c4)C(C#N)=C(N)OC32)cc(OC)c1OC (stereo unspecified)	77.6*	-7.6
O=C(Cn1cc(COc2ccc(C(=O)c3ccccc3)cc2)nn1)c1ccc(O)cc1	-0.2	4.5
Cc1cc2c(cc(C(=O)OC(C)C(=O)NCc3ccccc3)n2C)o1 (stereo unspecified)	1.4	8.3
CCOC(=O)c1c(CN2CCNCC2)nc2ccc(Cl)cc2c1-c1ccccc1	-1.7	26.9
CCCCn1c(N)c(N(CCOC)C(=O)CC(NC(=O)c2ccccc2Cl)c2ccccc2)c(=O)[nH]c1=O (stereo unspecified)	5.7	-5.8
Oc1c(Br)cc(Br)c2cccnc12	2.3	14.8
Cc1ccn2cc(-c3cc4ccccc4oc3=O)nc2c1	0.9	-14.2
COc1ccc(CN(C)C(=O)c2cccc(S(=O)(=O)N3CCCc4ccccc43)c2)c(OC)c1OC	-0.2	5.8
C=CC1=C(C(=O)O)N2C(=O)[C@@H](NC(=O)/C(=N\OCC(=O)O)c3csc(N)n3)[C@H]2SC1	-16.6	7.4
CSCCC(NS(=O)(=O)c1ccc(C)cc1)C(=O)N(C)CC(=O)Nc1ccccc1Br (stereo unspecified)	5.3	-0.2
Nc1ccccc1NC1CCCCC1	-0.2	-24.8
C[C@H](O)[C@@H]1C(=O)N2CCc3ccc(-c4ccccc4)cc3[C@@H]2C[C@@H]1N(C)C(=O)Nc1cc(Cl)cc(Cl)c1	0.0	-1.4
CCOc1ccccc1OCCCC(=O)N1CCN(S(=O)(=O)c2cc(F)ccc2F)CC1	-0.7	0.0
CN(CC(=O)Nc1ccccc1Cl)C(=O)COC(=O)/C=C/c1cccs1	0.4	3.2

Some of the compounds tested, so the mix of outcomes need not match the whole.
